High-throughput results: PubChem, Broad Institute
Beta apoptosis: inhibitors of cytokine-induced beta cell apoptosis, primary screen, luminescence. INS-1E cytokine-induced death, ATP luminescence, 48 h; percent of positive-control rescue, neutral wells zero. protection from apoptosis, % (no concentration beside the values). actives 0.8% (n = 300,000);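 active means all replicates at 75% or more, or half of them and the mean; inconclusive means half reach 75% but not the mean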;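 further: 0% = cytokine-treated negative control wells and 100% = positive control rescue; higher means more ATP so stronger rescue from cytokine killing; wells of about 40 µL received 100 nL stock; the first replicate is given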
Calb FLC: C. albicans growth inhibition with fluconazole, primary screen, CaCi-2 strain, Alamar Blue fluorescence. C. albicans CaCi-2 (fluconazole-resistant clinical isolate) + fluconazole, 48 h. growth inhibition, % (test concentration not listed). actives 0.57% (n = 300,000). AID 1979, 2009;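 active means most replicates above 75%; inconclusive means exactly half above 75%; inactive means most below 75%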;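 further: all wells also contain fluconazole at 8 µg/ml as a sub-toxic cotreatment; 0% = median of DMSO wells and 100% = median of geldanamycin control wells; wells of about 8 µL received 7.5 nL stock; the first replicate is given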
T cruzi inh: inhibitors of intracellular T. cruzi growth, primary screen, luminescence, NIH3T3 host cells. T. cruzi beta-gal in NIH3T3, 90 h. inhibition, % (no concentration beside the values). actives 1.4% (n = 300,000). AID 1885, 2009;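 active means mean inhibition across valid replicates above about 55%, limit read from the data; inconclusive means mean below that limit but half or more replicates reach it; inactive means mean below it, under half of replicates reach it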;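 further: signal also drops with host cell toxicity which is not excluded here; 0% = plate median of DMSO wells and 100% = zero luminescence signal; higher percent means less beta-gal luminescence so fewer parasites; stock transfer was 50 nL into about 50 µL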
ALR H2O2 inh: inhibitors of human ALR sulfhydryl oxidase, primary screen, biochemical, H2O2 detection, HRP-luminol luminescence, single point; purified ALR, DTT oxidation; inhibition, % (concentration not given with the values); actives 3.8% (n = 290,000); AID 485317, 2010;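 active means mean and each replicate at 75% or more; inconclusive means only one of the two met; inactive means neither met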;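 further: stock transfer was 7.5 nL into about 7.5 µL; 0% = neutral wells and 100% = wells with inactivated enzyme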
Target sequence (P55789 whole entry, looked up): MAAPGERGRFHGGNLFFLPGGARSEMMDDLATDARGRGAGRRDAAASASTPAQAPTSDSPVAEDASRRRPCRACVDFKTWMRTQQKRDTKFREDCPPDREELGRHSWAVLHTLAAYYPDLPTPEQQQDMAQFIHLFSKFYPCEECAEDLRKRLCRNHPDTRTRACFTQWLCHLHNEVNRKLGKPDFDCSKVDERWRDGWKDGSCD
FGF22 binding: binders of human FGF22 protein, primary screen, FGF22 synaptogenesis inhibitor project, biophysical, thermal shift, single point | Fibroblast growth factor 22 (Homo sapiens), Q9HCT0 | AID 651658, 2012 | actives 1.5% (n = 340,000) | calls only at 9.99 µM | recombinant FGF22 thermal shift, SYPRO orange fluorescence; percent of sucrose octasulfate shift, DMSO zero;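 active means melting point raised past a set limit in the mean and every replicate; inconclusive means no clear call; three in four hits are not shown here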
Target sequence (Q9HCT0 whole entry, looked up): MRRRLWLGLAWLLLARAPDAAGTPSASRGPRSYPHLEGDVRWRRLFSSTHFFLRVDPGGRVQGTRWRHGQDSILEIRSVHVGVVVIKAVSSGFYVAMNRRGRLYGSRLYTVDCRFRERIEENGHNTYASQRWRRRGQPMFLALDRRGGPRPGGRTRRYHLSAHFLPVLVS
AF4-AF9 inh: inhibitors of AF4 peptide binding to AF9, primary screen, biochemical, AlphaScreen, biotin-AF4 peptide, FLAG-AF9, single point; Protein AF-9 (Homo sapiens), P42568; inhibition, % at 10 µM; actives 0.47% (n = 350,000); AID 651704, 2012;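 active means every replicate reaching a set inhibition limit, whatever the replicate mean, cut at about 25% in these data; inconclusive means mean inhibition reaches that limit but some replicates miss it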;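 further: 0% = plate neutral control median and 100% = total signal loss; the record names both 10 and 1 µM as test concentration; the first replicate is given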
Target sequence (P42568 whole entry, looked up): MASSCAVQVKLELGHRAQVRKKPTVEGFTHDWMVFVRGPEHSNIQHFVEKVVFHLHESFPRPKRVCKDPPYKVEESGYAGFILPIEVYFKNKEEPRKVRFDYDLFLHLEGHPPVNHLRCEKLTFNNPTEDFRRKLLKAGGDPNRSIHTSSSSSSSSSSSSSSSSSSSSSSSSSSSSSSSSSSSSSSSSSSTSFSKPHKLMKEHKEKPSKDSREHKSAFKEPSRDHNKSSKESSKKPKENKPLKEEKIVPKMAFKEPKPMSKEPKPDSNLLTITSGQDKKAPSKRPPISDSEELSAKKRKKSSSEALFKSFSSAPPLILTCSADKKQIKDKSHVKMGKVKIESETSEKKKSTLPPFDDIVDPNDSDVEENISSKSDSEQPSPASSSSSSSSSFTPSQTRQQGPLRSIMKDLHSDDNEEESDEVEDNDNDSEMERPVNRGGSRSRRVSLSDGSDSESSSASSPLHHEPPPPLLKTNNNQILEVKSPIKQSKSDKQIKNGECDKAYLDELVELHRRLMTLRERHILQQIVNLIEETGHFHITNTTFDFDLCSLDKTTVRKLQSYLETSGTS
RanGTP-Impb inh: inhibitors of RanGTP-importin-beta interaction, primary screen, biochemical, FRET, CFP-Ran, YFP-importin-beta, homogeneous; Ran GTPase (GTP-bound) - importin-beta complex; cell-free CFP-Ran/YFP-importin-beta FRET ratio; inhibition, % (concentration not given with the values); actives 1.1% (n = 300,000);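 active means most replicates above 15%; inconclusive means exactly half above 15%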;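 further: 0% = DMSO wells and 100% = Ran loaded with GDP instead of GTP; wells of about 40 µL received 100 nL stock; the first replicate is given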
rRNA inh HTS: reduced GFP signal of wild-type E. coli, primary screen, bacterial rRNA inhibitor project, GFP/RFP fluorescence, OD600, single point. actives 1.6% (n = 350,000). GFP signal change (wild-type ribosome), % (no concentration beside the values). E. coli WT GFP vs humanized-ribosome RFP mutants, 24 h; hits give low values; DMSO median 0, no signal -100;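 active means significant combined selectivity score with lowered wild-type GFP, culture density cut under 30%, mutant RFP and density less affected; inactive means any of these conditions unmet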; further: one replicate is shown; some compounds called inactive have numbers as strong as hits
rRNA inh HTS OD600: also measured in rRNA inh HTS; calls as there; OD600 change, %; measured here: OD600 growth;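 optical density of the mix in the first replicate; 0 = DMSO median and -100 = no signal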
rRNA inh HTS RFP: second read-out of rRNA inh HTS, no call of its own (marks repeat the call); RFP signal change, %; measured here: RFP humanized mutant strains;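 first replicate; 0 = DMSO median and -100 = no signal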
* marks the source's active call; other numbers are inactive results; i = inactive; ? = inconclusive; . = not tested or not shown; + = active, no number. A portion of the library; count on the stated rates, not on these rows.

structure | Beta apoptosis | Calb FLC | T cruzi inh | ALR H2O2 inh | FGF22 binding | AF4-AF9 inh | RanGTP-Impb inh | rRNA inh HTS | rRNA inh HTS OD600 | rRNA inh HTS RFP
O=C(NCCc1ccccn1)c1ccc(S(=O)(=O)N2CCCCCC2)cc1 | -2.1 | -15.7 | -16.1 | -5.4 | . | . | 0.2 | . | . | .
Cn1nnnc1SCC(=O)N1CCCc2ccccc21 | -3.6 | ? | -3.6 | 0.1 | . | . | 5.1 | . | . | .
CN(C)c1cccc2c(C=C(C#N)C#N)ccc(N(C)C)c12 | 2.9 | 1.1 | 6.1 | 53.2 | i | 50.8* | 3.1 | 3.5 | -4.2 | 14.6
O=C1C=C(O)CC(c2ccco2)C1 (stereo not drawn) | -1.2 | ? | 3.0 | -5.9 | . | . | 0.1 | . | . | .
COc1ccccc1CCNS(=O)(=O)CCNC(=O)c1ccccc1 | 1.8 | -9.3 | -3.2 | 1.4 | i | -0.2 | 4.0 | 1.1 | -2.1 | -0.9
Cc1ccc(C(=O)O)c(C(=O)Nc2nc(C)cs2)c1 | -5.3 | -11.0 | -1.3 | 3.6 | . | . | . | -3.7 | 0.4 | -4.5
C=CCOc1ccc(C2NC(=S)NC(c3ccccc3)=C2C(C)=O)cc1OC (stereo not drawn) | -16.0 | 14.4 | -19.6 | 0.0 | i | 1.3 | -2.7 | 7.6 | 5.0 | -5.2
COc1ccccc1NS(=O)(=O)c1c(C)[nH]c(C)c1C(=O)N1CCCC1 | -8.4 | 39.1 | -5.6 | -5.9 | i | 0.3 | ? | 9.0 | 13.0 | 1.0
COc1ccc(CNC(=O)Cc2cccs2)cc1 | 0.1 | -1.6 | -12.3 | -26.6 | . | . | 3.2 | . | . | .
CCOC(=O)c1cnc(-n2nc(C)cc2C)nc1NCc1ccc2c(c1)OCO2 | 42.7 | 37.9 | 70.2* | -26.3 | . | . | 2.2 | . | . | .
Nc1c(Br)c(=O)[nH]c(=O)n1-c1ccccc1 | -4.9 | 2.0 | -15.8 | -8.8 | i | 0.2 | -3.6 | 1.9 | 9.6 | -0.6
N#CC1=C(S)N(c2ccc(F)cc2)C2(CCCCC2)NC1=O | 0.9 | -3.1 | -14.2 | 14.8 | i | -10.0 | -3.8 | 4.2 | 17.0 | 1.2
O=C1CC(NS(=O)(=O)c2ccccc2F)CN1c1ccc2c(c1)OCCO2 (stereo not drawn) | . | 6.4 | 3.8 | -0.9 | i | -9.8 | -0.7 | 1.2 | 8.0 | -0.7
Cc1c(CCOC(=O)C2C3CC4CC(C3)CC2C4)sc[n+]1CC(=O)c1ccc(Br)cc1 (stereo not drawn) | 51.9 | 28.6 | 10.9 | -3.1 | i | -1.9 | 3.5 | -5.2 | 20.8 | 2.8
Cc1cc(C)nc(SCc2nnc(SCC(=O)O)n2-c2ccccc2)n1 | -4.8 | 1.5 | -39.0 | -7.5 | i | -9.9 | 3.4 | 13.0 | 15.0 | -2.6
O=C(NCc1ccccn1)C(=O)C1C(=O)Nc2ccccc21 (stereo not drawn) | -3.1 | -11.2 | -3.6 | 14.8 | i | 1.6 | -4.4 | 13.1 | 12.3 | 0.7
NS(=O)(=O)c1ccc(N2N=C(c3ccc(Br)cc3)CC2c2ccc(F)cc2)cc1 (stereo not drawn) | -1.0 | 3.5 | 52.6 | . | . | . | 23.1* | . | . | .
c1ccc(Oc2cc(-c3ccccc3)nc(-c3ccccc3)n2)cc1 | 10.3 | -5.7 | 10.0 | 2.0 | i | 0.9 | 1.4 | 5.7 | 5.6 | -1.9
O=C(Nc1ccc(N2CCN(Cc3ccccc3)CC2)cc1)c1ccco1 | -0.7 | -5.1 | -1.5 | 11.2 | i | 0.9 | 1.0 | -12.9 | -2.4 | 0.1
Cc1cccc(-n2c(O)c(C=Nc3cc(O)ccc3C)c3ccccc3c2=O)n1 | 37.2 | 29.7 | -3.1 | . | i | -0.8 | -2.0 | 1.9 | -5.5 | 0.3

By substructure, the entries above with an aryl thioether with sulfur outside any ring (2)
structure | Beta apoptosis | Calb FLC | T cruzi inh | ALR H2O2 inh | FGF22 binding | AF4-AF9 inh | RanGTP-Impb inh | rRNA inh HTS | rRNA inh HTS OD600 | rRNA inh HTS RFP
Cn1nnnc1SCC(=O)N1CCCc2ccccc21 | -3.6 | ? | -3.6 | 0.1 | . | . | 5.1 | . | . | .
Cc1cc(C)nc(SCc2nnc(SCC(=O)O)n2-c2ccccc2)n1 | -4.8 | 1.5 | -39.0 | -7.5 | i | -9.9 | 3.4 | 13.0 | 15.0 | -2.6

Additional records follow:
structure | Beta apoptosis | Calb FLC | T cruzi inh | ALR H2O2 inh | FGF22 binding | AF4-AF9 inh | RanGTP-Impb inh | rRNA inh HTS | rRNA inh HTS OD600 | rRNA inh HTS RFP
O=C(COc1ncnc2sccc12)NC1CCS(=O)(=O)C1 (stereo not drawn) | -2.5 | -1.8 | 9.0 | . | i | -10.2 | -3.8 | 9.1 | 1.7 | -4.6
O=C(CC12CC3CC(CC(C3)C1)C2)NCc1ccco1 | 3.4 | -32.8 | 12.7 | 1.3 | i | -0.6 | 0.9 | 12.2 | 4.2 | -1.4
[O-]/C(=C(\C(=S)Nc1ccccc1F)[n+]1ccccc1)c1ccc(OC(F)F)cc1 | 0.1 | -2.3 | -7.3 | -16.3 | i | -20.3 | 2.3 | 1.2 | -0.2 | 1.4
O=C(COc1cccc(Br)c1)NN=C1c2ccccc2-c2ccccc21 | 6.1 | -36.5 | 8.5 | . | . | . | 0.7 | . | . | .
CCN(CC)CCNC(=O)C(=O)NCC1OCCN1C(=O)c1ccc2c(c1)OCO2 (stereo not drawn) | -0.7 | -1.5 | -25.2 | 0.3 | . | . | -1.6 | . | . | .
CC(NC(=O)C1CCCN1C(=O)OCc1ccccc1)c1ccccc1 (stereo not drawn) | -0.5 | -3.6 | -12.6 | -35.5 | i | -4.9 | 0.1 | 1.1 | 1.1 | 3.4
O=C(C(=O)N1CCCCC1)c1c(-c2ccccc2)[nH]c2ccccc12 | 2.9 | 33.3 | -1.6 | 3.8 | i | -0.3 | 1.7 | 2.0 | -4.7 | 0.5
Cc1ccc(OCCOc2cccc3ccc(C)nc23)c([N+](=O)[O-])c1 | -8.5 | 11.1 | -1.6 | -66.6 | i | 3.1 | 0.6 | -20.9* | -2.6* | -3.0*
COc1ccccc1NNC(=O)C(O)(c1ccccc1)c1ccccc1 | -8.5 | -14.2 | 2.9 | . | i | -8.6 | 5.8 | -4.1 | -20.7 | -2.1
Cc1ccc(N/C=C2\C(=O)C3(C)CCC2C3(C)C)cc1C (stereo not drawn) | -9.5 | -8.6 | 21.5 | 4.0 | i | 0.7 | 1.2 | 19.4 | 12.1 | 0.2
Cc1ccc(C(=O)N/N=C/c2cc(C)n(-c3ccc(Br)cc3)c2C)cc1[N+](=O)[O-] | 3.2 | -3.1 | 13.7 | -7.3 | . | . | 2.1 | . | . | .
CCCc1cc(C(=O)N2CCCC(Cc3cccc(Cl)c3)(C(=O)OCC)C2)n(C)n1 (stereo not drawn) | 1.7 | -1.3 | 10.8 | -6.3 | i | 1.0 | -0.5 | -9.0 | -18.3 | -4.3
CCCOc1ccc(N2C(=O)CC(N(Cc3ccco3)C(=O)CCC(=O)O)C2=O)cc1 (stereo not drawn) | -2.9 | 1.3 | -5.9 | . | i | -14.1 | 0.5 | 2.4 | 0.2 | -3.5
O=C(CN1CCOCC1)N1CCCc2c1c(=O)oc1ccc(OCc3ccccc3)cc21 | 6.0 | 2.0 | 14.8 | -13.2 | . | . | -0.4 | . | . | .
O=C(CN1C(=O)/C(=C/c2c(F)cccc2Cl)Oc2ccccc21)NCc1ccco1 | 9.7 | -5.3 | 21.2 | -0.9 | . | . | -1.5 | . | . | .
NCCCCCc1cn([C@@H](CCC(=O)O)C(=O)NCCCCCCCCCCC(=O)N2CCNCC2)nn1 | -3.0 | . | . | -6.9 | i | 5.3 | . | 26.9 | 16.7 | 0.4
Cc1cc(C)cc(C(=O)NC(=S)Nc2ccc3[nH]c(=O)[nH]c3c2)c1 | -0.2 | 9.0 | -4.1 | -13.9 | . | . | ? | . | . | .
CCOC(=O)C1=C(COC(=O)c2c(OC)cccc2OC)NC(=O)NC1C (stereo not drawn) | 6.2 | 17.7 | 8.2 | -2.6 | i | -0.5 | 4.4 | -6.3 | -8.0 | -1.7
O=C(NCCc1ccccc1)C(=O)NCC1CCCO1 (stereo not drawn) | 3.7 | -1.1 | -13.8 | -0.3 | i | 5.0 | -2.1 | 0.0 | -2.4 | -7.2
Cc1cccc(C)c1NC(=O)COC(=O)CCc1c[nH]c2ccccc12 | 0.1 | . | . | 2.5 | i | -0.3 | . | 2.5 | -1.4 | -1.4
CCS(=O)(=O)N1CCN(Cc2nc3ccccc3c(=O)[nH]2)CC1 | -0.6 | 15.1 | -0.9 | -10.1 | . | . | -2.7 | . | . | .
CCOc1ccc(-c2c(C(=O)N/N=C/c3cccc(Br)c3)nnn2-c2nonc2N)cc1 | 3.4 | 0.1 | 15.2 | -14.3 | i | -2.0 | 0.0 | -0.1 | 8.7 | -1.2
Cc1c(CC(=O)O)c(=O)oc2c(C)c(OCc3ccccc3Br)ccc12 | . | 3.8 | -1.7 | . | i | -4.5 | -4.2 | -2.5 | 1.4 | -1.0
CCC(=O)NC1CCN(C(=S)NC)CC1 | 3.9 | -9.3 | -14.2 | -2.0 | . | -1.0 | -1.7 | -1.5 | -0.4 | 1.0
CC1=CSC2=NC(=O)/C(=C\c3cccn3-c3ccccc3)C(=N)N12 | -5.5 | -3.5 | -7.4 | 2.3 | . | . | -2.5 | . | . | .
CCN(CC(=O)NCc1cccs1)C(=O)c1cc(S(=O)(=O)NCc2ccccc2)ccc1C | 2.0 | 0.5 | 5.1 | . | i | -11.5 | ? | -0.8 | 5.3 | -0.7
Cc1cc(C)n(CC(=O)N2CCCC(N3CCN(Cc4ccc5c(c4)OCO5)CC3)C2)n1 (stereo not drawn) | -2.4 | -6.7 | 8.4 | 1.8 | i | 0.6 | -1.9 | 14.6 | 6.4 | 1.3
CCN(CC)c1ccc(/C=N/NC(=O)c2c[nH]c3ccccc23)cc1 | 6.8 | -22.9 | 3.2 | 71.6 | + | 8.6 | 1.9 | 0.0 | 2.4 | -2.0
O=C(Nc1ccccc1F)C(=O)c1cn(CC(=O)N2CCCCC2)c2ccccc12 | 0.3 | -17.0 | . | -4.8 | i | 2.0 | . | 20.7 | 17.0 | 4.3
Cc1ccc(OCC(=O)NNC(=O)c2cc3ccccc3o2)cc1C | . | 24.7 | -6.4 | 1.4 | . | . | -2.8 | . | . | .
